RE007 growth inh: less growth of the S. pombe RE007 Vpr strain; 0.21% of 360,000 active; AID 651644; Potency, µM (highest dose often 92.2 µM), inactives show top-dose activity change, negative = less growth; S. pombe RE007 Vpr strain, BacTiter-Glo ATP luminescence, 24 h; control for the full effect not named in the record; active = well fitted falling curve with a large enough effect; inconclusive = small, poorly fitted or top-dose-only effect; inactive = no such curve, though single readings can be large or run the other way;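 further: on the % scale 0 is the no-effect control and ±100 the full control effect; nearly all actives have a fitted effect of over 50% in size; the assay follows cell death caused by Vpr and the record does not say whether a fall means rescue or toxicity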
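Fission yeast RE007 carrying one integrated HIV-1 vpr copy, seeded at OD 0.01 in PMG+AL medium with 23 nL pinned compound. Grown 24 h at 30 degrees; viability read by BacTiter-Glo luminescence after 5 min.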
2A StopGo: lowers the luciferase signal of an FMDV 2A StopGo reporter; AID 1159524; 1.2% of 410,000 active; Potency, µM (doses to about 57.9 µM), inactives show at the highest dose signal change, negative = less light; human cells with a luciferase reporter of 2A StopGo recoding; control for the full effect not named in the record; active = well fitted falling curve with a large enough effect; inconclusive = small, poorly fitted or top-dose-only effect; inactive = no such curve, though single readings can be large or run the other way; tested in HEK293T cells; further: on the % scale 0 is the no-effect control and ±100 the full control effect; nearly all actives have a fitted effect of over 45% in size; luciferase light after 4 h
Cruzain noTriton: inhibitors of Trypanosoma cruzi cruzain without detergent; P25779; purified cruzain, Z-FR-AMC fluorescence, no detergent; Potency, µM, for the others: max response, negative = inhibition, most hits filed as inhibitors; 2.3% of 200,000 active; AID 1476; active means well fitted curve in the direction sought with a large enough effect; inconclusive means small, poorly fitted or top-dose-only effect, or another doubt; inactive means no such curve, though single readings can be large; an effect the other way counts as inactive or inconclusive;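 further: plate controls were enzyme without inhibitor for no effect and buffer without enzyme for full effect; nearly all actives have a fitted effect of over 40% in size; top concentration of the series not given in the record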
Target sequence (P25779 123-467 limits assumed): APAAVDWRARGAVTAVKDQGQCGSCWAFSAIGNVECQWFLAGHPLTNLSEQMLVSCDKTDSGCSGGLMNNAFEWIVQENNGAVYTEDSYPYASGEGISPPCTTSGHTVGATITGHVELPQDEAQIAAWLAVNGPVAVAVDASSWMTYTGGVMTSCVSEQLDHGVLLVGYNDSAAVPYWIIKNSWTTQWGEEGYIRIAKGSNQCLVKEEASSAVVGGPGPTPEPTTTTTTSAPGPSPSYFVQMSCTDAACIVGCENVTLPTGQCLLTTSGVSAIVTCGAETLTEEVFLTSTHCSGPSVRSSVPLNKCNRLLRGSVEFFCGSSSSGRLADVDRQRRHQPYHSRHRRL
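Purified cruzain at 1.5 nM, pre-incubated 15 min with compound at room temperature in 100 mM sodium acetate pH 5.5, 5 mM DTT, 0.00005% Triton X-100. Reaction started with 2 uM Z-FR-AMC; AMC fluorescence increase over 60 s gives rate.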
NS1 function inh: blocks influenza NS1 protein function | S. cerevisiae slowed by influenza A NS1, growth recovery by OD600 | Potency, µM (top dose mostly 46.1 µM), for inactives: at the highest dose activity, positive = more growth | 0.4% of 270,000 active | AID 2326; further: actives are rising curves; nearly all actives have a fitted effect of over 50% in size
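Recovery from NS1-induced slow growth read by OD600 in budding yeast switched to galactose assay medium (pH 6.0, -URA) at 1:100 dilution. Compound 23 nl per well; the matching strain lacking NS1 serves as control.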
LASV entry inh: inhibitors of Lassa virus binding or cell entry. Lassa virus pseudotype entry inhibition, cell reporter; control for the full effect not named in the record. Potency, µM (highest dose often 37.9 µM), inactives show top-dose activity change, negative = inhibition, hits mostly inhibitors. 1.2% of 300,000 active. AID 540256; active means well fitted inhibition curve with a large enough effect; inconclusive means small, poorly fitted or top-dose-only effect, or effect the other way; inactive means flat fitted curve, though single readings scatter; tested in HEK293 cells; further: on the % scale 0 is the no-effect control and ±100 the full control effect; nearly all actives have a fitted effect of over 50% in size; luciferase read-out
Marburg entry inh: inhibitors of Marburg virus binding or cell entry; Marburg virus pseudotyped entry inhibition, cell reporter; control for the full effect not named in the record; about a third of the inactives were read at about 46 µM; Potency, µM (highest dose often 37.8 µM), without a hit: at the highest dose activity change, negative = inhibition, hits mostly inhibitors; 1.8% of 300,000 active; AID 540276; active = well fitted inhibition curve with a large enough effect; inconclusive = small, poorly fitted or top-dose-only effect, or effect the other way; inactive = flat fitted curve, though single readings scatter; tested in HEK293 cells; about a fifth of its hits are not listed in these tables; further: on the % scale 0 is the no-effect control and ±100 the full control effect; luciferase read-out
Cruzain Triton: cruzain (T. cruzi) inhibition with detergent | AID 1478 | 0.43% of 200,000 active | purified cruzain, Z-FR-AMC fluorescence, 0.01% Triton | Potency, µM, inactives show max response, negative = inhibition, most hits filed as inhibitors | P25779; active means well fitted curve in the direction sought with a large enough effect; inconclusive means small, poorly fitted or top-dose-only effect, or another doubt; inactive means no such curve, though single readings can be large; an effect the other way counts as inactive or inconclusive;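 further: plate controls were neutral wells for no effect and buffer without enzyme for full effect; nearly all actives have a fitted effect of over 40% in size; top concentration of the series not given in the record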
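Compounds were screened in titration against cruzain (1.5 nM) with 0.01% Triton X-100 to counter colloidal aggregation. Activity was the AMC fluorescence increase over 60 s after adding 2 uM Z-FR-AMC at pH 5.5.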
SARS PLP yeast: SARS-CoV PLP inhibition in yeast; S. cerevisiae expressing SARS-CoV PLpro, growth rescue; control for the full effect not named in the record; Potency, µM (highest dose often 32.9 µM), without a hit: top-dose activity, positive = growth rescue; 0.19% of 330,000 active; AID 485353; further: 0% is about no effect; nearly all actives have a fitted effect of over 55% in size; growth read by luminescence after 48 h
* = called active by the depositor; ? = inconclusive; · = no result given; & = joins results of further samples; [ ] = remark or other dose. Unless noted, the call rests on the fitted dose curve; in most records, active means well fitted rising curve with a large enough effect; inconclusive means small, poorly fitted or top-dose-only effect; inactive means no such curve, though single readings can be large or run the other way. Potency means the concentration at half of the fitted maximal effect.

Results follow in this order: RE007 growth inh, 2A StopGo, Cruzain noTriton, NS1 function inh, LASV entry inh, Marburg entry inh, Cruzain Triton, SARS PLP yeast
1) O=C(Nc1ccc(N2CCN(Cc3ccccc3F)CC2)cc1)c1ccccc1[N+](=O)[O-]
  ?, -1%, ·, 12%, -4%, -25%[46.1 µM], ·, 0%
2) COc1ccc(NC(C)=O)cc1NC(=O)c1cccc(S(=O)(=O)N2CCN(Cc3ccccc3)CC2)c1
  22%, -17%, ·, ·, -9%, -4%, ·, -1%
3) O=C(CSc1nnc(-c2ccncc2)n1CCc1ccccc1)NCc1ccccc1
  14%, 2%, 4%, -6%, 3%, -13%, -0.2%, 2%
4) Brc1cnc(N2CCOCC2)nc1N1CCCCC1
  -4%, -3%, -1%, -65%, ?, -3%, 2.5%, -3%
5) O=C(Nc1sc2c(c1C(=O)NCc1cccnc1)CCCC2)c1cc(=O)c2ccccc2o1
  ·, -7%, 0%, ·, 14%[46.1 µM], 7%[46.1 µM], -1.9%, ·
6) O=C(O)c1nc(NCCc2ccccc2)ncc1Cl
  0%, 3%, ·, -18%, -23%[46.1 µM], 0%[46.1 µM], ·, -1%
7) CCn1c(=O)cc(OCC(=O)Nc2cccnc2)c2ccccc21
  -5%, 28%, -17%, 1%, -21%, -1%, 0.2%, 3%
8) CC1(C)CCC(NC(=O)[C@@H](N)CCC(=O)O)CC1
  ·, ·, -1%, 0%, ?, 3%&10%&10%, -2.1%, ·
9) CC(C)c1ccc(C2CC(=O)N3CN(Cc4ccco4)CSC3=C2C#N)cc1 (stereo not given)
  23%, ?, 11%, -91%, -18%, -17%, -5.0%, 0%
10) CCCNC(=O)CN1CCN(c2ccc(NC(=O)c3ccc(OC)cc3)cc2C(=O)O)CC1
  ·, -15%, 8%, ·, 10%[46.1 µM], ·, 1.2%, ·
11) CCC(c1nnnn1CCc1ccccc1)N(Cc1ccco1)Cc1cc2cc(C)cc(C)c2[nH]c1=O (stereo not given)
  7%, ?, -16%, 2%, ?, ?, -2.3%, -2%
12) Cc1cc(C)c2c(N)c(C(=O)N/N=C/c3cccs3)sc2n1
  -18%, 51%[activator], ·, -3%, 20%, ?, ·, -2%
13) Cc1ccc(-c2nc(N)n(C(=O)c3ccco3)n2)cc1
  -6%, -4%, ·, ·, 9%, -9%, ·, 2%
14) CC(O)C(NS(=O)(=O)c1ccc(Cl)cc1)C(=O)OCC(=O)N1CCN(c2ccccc2)CC1 (stereo not given)
  10%, ?, ?, -5%, -3%, 3%, 1.4%, 13%
15) CCN(CC)S(=O)(=O)c1cc(NC(=O)Cc2n[nH]c(=O)c3ccccc23)ccc1C
  15%, 0%, ·, -1%, ?, ?, ·, -1%
16) CC(C)(C)OC(=O)CNC(=O)c1[nH]cnc1C(=O)Nc1ccc(CNC(=O)OC(C)(C)C)cc1
  -8%, ?, ·, -31%, ·, ·, ·, 7%
17) CCCCc1nnc(NC(=O)CC(=O)Nc2ccccc2C(=O)O)s1
  7%, 1%, -1%, 7%, -23%, 2%, -0.4%, 8%
18) Cc1cc(C)n2ncc(/C(N)=N/OC(=O)Nc3ccc(Cl)cc3)c2n1
  -16%, 6%, ·, -1%, ·, ·, ·, -1%
19) Cc1cccc(NC(=O)NCc2ccc3c(c2)OCO3)c1C
  2%, 24%, ·, ·, -4%, 6%[46.1 µM], ·, -1%
20) Cc1cccc(NC(=O)Nc2cccc(F)c2)n1
  -12%, 43%[activator], 3%, -46%, ?, -2%, -1.1%, -16%
21) O=S(=O)(c1ccc(F)cc1)N1CCN(CC(O)COCc2cccs2)CC1 (stereo not given)
  5%, -4%, 24%, -17%, 1%, 13%, 5.5%, 3%
22) CC1(C)CC(=O)C2=C(C1)OC(N)=C(C#N)C21C(=O)N2CCCc3cccc1c32 (stereo not given)
  6%, 12%, 4%, -9%, 21%[14.3 µM], 10%, 4.3%, -4%
23) O=C(NC(=S)Nc1ccc2c(c1)OCCO2)c1ccc(F)cc1Cl
  -5%, 41%[activator], 2%, 23%, -2%, -31%, -9.2%, 6%
24) Cc1cc(-c2cn3ccccc3n2)c(C)n1-c1ccccc1
  -5%, -66%, ·, ·, ?, ?, ·, -7%
25) CC(C)c1ccc(-c2c(C#N)c(N)nc3c2CCCCC3)cc1
  -6%, -21%, ?, -6%, 4%, 16%, -7.2%, -7%
26) COCCn1cc(C(=O)N2CCN(C)CC2)c2c3ccccc3n(C)c2c1=O
  -1%, 3%, 4%, 4%, -8%, 22%, -1.0%, -8%
27) CCCCCOC(=O)C1=C(C)NC(=O)NC1c1ccc2c(c1)OCO2 (stereo not given)
  20%, ?, ·, ?, -12%, ?, ·, ?
28) CC(C)(C)NC(=O)/C(=C\c1ccccc1F)NC(=O)c1ccc([N+](=O)[O-])cc1
  1%, -12%, ·, ·, 0%, 5%, ·, -2%
29) Cn1cnc(S(=O)(=O)N2CCC(C(=O)NCc3ccccc3Cl)CC2)c1
  ·, 5%, -4%, ·, 0%[46.1 µM], ·, -3.8%, ·
30) O=c1c2ccccc2ncn1-c1ccc(Cl)cc1
  6%&-5%, 52%&35%[activator], ·, -4%&0%, ?, -6%&-6%, ·, 2%&-1%

Pulled by compound from the list above, 2 records:
Results follow in this order: RE007 growth inh, 2A StopGo, Cruzain noTriton, NS1 function inh, LASV entry inh, Marburg entry inh, Cruzain Triton, SARS PLP yeast
24) Cc1cc(-c2cn3ccccc3n2)c(C)n1-c1ccccc1
  -5%, -66%, ·, ·, ?, ?, ·, -7%
26) COCCn1cc(C(=O)N2CCN(C)CC2)c2c3ccccc3n(C)c2c1=O
  -1%, 3%, 4%, 4%, -8%, 22%, -1.0%, -8%

(list continues)
Results follow in this order: RE007 growth inh, 2A StopGo, Cruzain noTriton, NS1 function inh, LASV entry inh, Marburg entry inh, Cruzain Triton, SARS PLP yeast
31) NC(=O)NC(CC(=O)NCc1ccc2c(c1)OCO2)c1ccccc1Cl (stereo not given)
  5%, 3%, ·, -8%, 3%, 12%[46.1 µM], ·, 2%
32) O=C(N/N=C/c1cccnc1)C12CC3CC(CC(C3)C1)C2
  -5%, -13%, ·, 1%, 16%[46.1 µM], ?, ·, -5%
33) Cc1ccc(NC(=O)CSc2nc(CSc3ccc(C)cc3)cc(=O)[nH]2)cc1
  -4%, 28%, ·, 0%, ·, ·, ·, 0%
34) CC(C)CN(CC(C)C)C(=S)NC1CCCCC1
  -16%, 5%, -3%, -10%, 6%, -1%, -4.2%, ?
35) Cc1ccc(C)c(NC(=O)Cn2nnc(C(=O)NCc3ccccc3Cl)c2N)c1
  ·, -4%, -6%, ·, -4%[46.1 µM], ·, 0.0%, ·
36) O=C(CCn1c(=O)oc2ccc(Cl)cc21)NCCCN1CCOCC1
  -9%, -5%, ·, -1%, ·, ·, ·, 3%
37) CN(C)S(=O)(=O)c1ccc(C(=O)NN2C(=O)NC3(CCCCC3)C2=O)cc1
  2%, -7%, ·, ·, 1%, 24%, ·, 5%
38) Cc1ccc(CSc2nc3ncccc3[nH]2)cc1
  -12%, -9%, 2%, -40%, ?, ?, 2.5%, -15%
39) COc1ccc(OCC(=O)Nc2nnc(-c3ccco3)s2)cc1
  -20%, 41%[activator], ?, 2%, 4%, ?, -6.2%, 26%
40) Cc1ccc(NC(=S)NC(=O)c2ccccc2)cc1NC(=S)NC(=O)c1ccccc1
  9%, 72%[activator], ·, 4%, ·, ·, ·, -1%
41) Cc1cc(Br)cc2c(C(=O)NCC3CCCO3)cc(-c3cccs3)nc12 (stereo not given)
  -4%, 9%, ·, 13%, -12%, -8%, ·, 0%
42) COc1ccc(C(=O)NNC(=O)CSc2ccccc2)cc1
  -2%, 47%[activator], ·, 5%, 19%, 9%[46.1 µM], ·, 0%
43) Cc1cc(C)cc(-n2nnc(C(=O)NCc3ccc4c(c3)OCO4)c2N)c1
  -11%, -25%, 8%, -26%, 4%, -17%, -5.7%, -13%
44) COc1ccccc1-c1nnc(SCC(=O)c2ccc(Cl)cc2)n1-c1ccccc1
  ·, -15%, 25µM*, ·, ?, ?, -4.4%, ·
45) CNC(=S)N1CCC(NC(=O)C(Cc2ccccc2)NC(C)=O)CC1 (stereo not given)
  -1%, -3%, ·, ·, 11%[46.1 µM], -8%[46.1 µM], ·, 8%
46) O=C(CC(=O)NCc1ccccc1)NCc1ccccc1
  1%, -1%, ·, 4%, -14%, -3%, ·, -7%
47) C#CCn1c(=NC(=O)CN2C(=O)CCC2=O)sc2cccc(C)c21
  -12%, 0%, -2%, -2%, ·, ·, -0.6%, 14%
48) COc1cc(CNn2c(C)n[nH]c2=S)cc(Cl)c1OCc1ccccc1
  3%, ·, 16%, -5%, -23%, -13%, -9.1%, -2%
49) Cc1ccc2[nH]c(=O)c3cc(C(=O)NCc4cccc(Cl)c4)sc3c2c1
  ·, -22%, 10%, ·, ·, 1%[46.1 µM], -1.0%, ·
50) C=CCN(C(=O)c1ccc2c(c1)nnn2C)c1ccccc1
  2%, 3%, ·, -2%, -24%[46.1 µM], -3%[46.1 µM], ·, 3%
51) O=C(Nc1ccccc1)NC1CC2CCC(C1)N2Cc1nnnn1Cc1ccc2c(c1)OCO2 (stereo not given)
  -9%, -27%, -3%, -6%, -13%, ?, 1.2%, 3%
52) O=C(C1=C(O)C(=O)N(CC2CCCO2)C1c1ccc(Cl)cc1)c1ccco1 (stereo not given)
  25%, 20%, ·, -4%, ·, -6%[46.1 µM], ·, -3%
53) COC(=O)c1c(NC(=O)CCCOc2ccc(C)cc2)sc2c1CCCC2
  ·, -9%, 1%, ·, 25%[46.1 µM], ·, -7.2%, ·

Part of the list above with just Cruzain noTriton, RE007 growth inh and NS1 function inh.
cpd | mol | Cruzain noTriton | RE007 growth inh | NS1 function inh
46 | O=C(CC(=O)NCc1ccccc1)NCc1ccccc1 | · | 1% | 4%
39 | COc1ccc(OCC(=O)Nc2nnc(-c3ccco3)s2)cc1 | ? | -20% | 2%
32 | O=C(N/N=C/c1cccnc1)C12CC3CC(CC(C3)C1)C2 | · | -5% | 1%
